Ba CapD inh: Bacillus anthracis CapD inhibitors, primary screen, biochemical, fluorescence intensity. CapD gamma-glutamyltranspeptidase (Bacillus anthracis Ames Ancestor). purified CapD enzyme, fluorescence intensity read-out; stronger effect = lower value; some hits fall short of the stated cut. z-score (concentration not given with the values). 140,000 tested, 0.23% active. AID 492967, 2010;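 active means z-score under -4 in either of two replicates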;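 further: stock transfer was 100 nL into about 40 µL; score is relative to mean and spread of the plate; one replicate is shown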
AID504770: growth inhibition of E. coli YBA685, primary screen, V. cholerae RctB inhibitors | E. coli YBA685 rctB-dependent plasmid, OD600 growth, 3 h; stronger effect = lower value | z-score (no concentration beside the values) | 130,000 tested, 0.27% active | AID 504770, 2011;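 active means z-score under -2 on both plates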;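 further: wells of about 30 µL received 100 nL stock; score is relative to mean and SD of the test wells; the first replicate is given; strong numbers were not always called active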
The depositor's hits bear a star; / = not tested or not shown; & = joins results of further samples.

Screens in order – Ba CapD inh | AID504770
Cc1cnn2c3c(cnc12)C(=O)c1ccccc1-3
 : -0.64 | -0.15
CCOC(=O)c1ccc(-c2ccc(/C=C3/C(=O)Nc4ccccc43)o2)cc1
 : 0.045 | 1.7
Cc1oc2nc[nH]c(=O)c2c1C(=O)OC(C(=O)N1CCCCC1)c1ccccc1 (centres undefined)
 : / | 0.1
O=c1[nH]c(-c2cccc(Oc3ccccc3)c2)nc2ccccc12
 : 32 | 0.2
CCOC(=O)c1[nH]c(C)c(C(=O)N2CCCCC2)c1C
 : 0.11 | 0.4
O=C(O)CC(Nc1nc(-c2ccccc2)nc2ccccc12)C(=O)O (centres undefined)
 : -0.3 | /
O=c1ccc(-c2ccc(S(=O)(=O)NCc3ccco3)o2)n[nH]1
 : 0.83 | -0.3
Cc1ccsc1/C=N/NC(=O)CN1CCSCC1
 : -0.41 | -0.1
O=[N+]([O-])c1cccnc1Oc1cncc(Cl)c1
 : 0.015 | /
O=C(/C=C/c1ccco1)Nc1ccccc1F
 : -1.7 | -0.85
COc1ccc(NC(=O)CS(=O)CC(=O)Nc2cccc(F)c2)cc1 (centres undefined)
 : / | -0.5
CCc1cccc(NC(=O)c2ccc(Cn3c(=O)[nH]c4ccsc4c3=O)cc2)c1
 : 0.075 | 1.2
Cc1cc(N2CCCC2)ccc1/C=C/C1=CCN(C)CC1
 : / | 1.2
CCc1ccc(NC(=O)CS(=O)CC(=O)Nc2ccc(F)cc2F)cc1 (centres undefined)
 : / | -0.55
Nc1ccc(Oc2ccc(Br)cc2)nc1
 : 5.5 | /
COc1ccc(OC)c(C2Nc3ccc4ccccc4c3C3=C2C(=O)CCC3)c1 (centres undefined)
 : 52 | /
COc1ccc(-c2[nH]nc3c2C2(C(=O)N(CC(=O)O)c4ccccc42)C(C#N)=C(N)O3)cc1OC (centres undefined)
 : 0.3 | /
CC1=NN(c2ccc(Cl)c(C(=O)O)c2)C(=O)/C1=C/c1ccc(-c2ccccc2Cl)o1
 : -0.72 | /
COc1cccc2c1NC(c1cccc(Br)c1)C1CC=CC21 (centres undefined)
 : 0.5 | /
COc1ccc(OCCNC(=O)OCCCc2ccccc2)cc1
 : 0.025 | /

The list goes on; the last 7 above are carried over.
Screens in order – Ba CapD inh | AID504770
CCc1ccc(NC(=O)CS(=O)CC(=O)Nc2ccc(F)cc2F)cc1 (centres undefined)
 : / | -0.55
Nc1ccc(Oc2ccc(Br)cc2)nc1
 : 5.5 | /
COc1ccc(OC)c(C2Nc3ccc4ccccc4c3C3=C2C(=O)CCC3)c1 (centres undefined)
 : 52 | /
COc1ccc(-c2[nH]nc3c2C2(C(=O)N(CC(=O)O)c4ccccc42)C(C#N)=C(N)O3)cc1OC (centres undefined)
 : 0.3 | /
CC1=NN(c2ccc(Cl)c(C(=O)O)c2)C(=O)/C1=C/c1ccc(-c2ccccc2Cl)o1
 : -0.72 | /
COc1cccc2c1NC(c1cccc(Br)c1)C1CC=CC21 (centres undefined)
 : 0.5 | /
COc1ccc(OCCNC(=O)OCCCc2ccccc2)cc1
 : 0.025 | /
Cc1ccc(C2CC(c3cccs3)=NN2C(=O)CSc2nnc(CNC(=O)c3ccccc3F)n2C)cc1 (centres undefined)
 : 12 | /
CCOC(CNC(=O)c1ccc2c(c1)ncn2-c1cc(Cl)ccc1OC)OCC
 : -0.58 | /
CC1CCCN(C(=S)NCc2ccccc2)C1 (centres undefined)
 : / | 0.2
O=c1c2ccccc2[nH]c(=S)n1CCc1ccccc1
 : 0.03 | 1.9
CCC(C)NC(=O)C1CCC(CNS(=O)(=O)c2ccc(NC(C)=O)cc2)CC1 (centres undefined)
 : -0.85 | 0.6
N#CC1(NC(=O)CSc2nnc(-c3c[nH]c4ccccc34)o2)CCCCC1
 : / | -0.15
CCN(CC)c1nc(C)nc2sc(C(=O)Nc3ccc(F)cc3F)c(C)c12
 : 4.4 | /
CCOc1cc(C(C#N)N2CCCCC2)ccc1OC (centres undefined)
 : / | -1.1
OC(c1ccccc1)(c1ccccc1)c1n[nH]c(=S)n1-c1ccc(F)cc1
 : -0.11 | /
COC(=O)c1ccccc1NC(=O)Cn1c(C(F)(F)F)nc2ccccc21
 : -0.57 | /
CCCCS(=O)CSc1nc(-c2cccs2)cc(-c2ccccc2)c1C#N (centres undefined)
 : 7.6 | -0.25
COC(=O)C1=C(Nc2ccccc2NC(=O)C(C)C)CSC1
 : -0.14 | -1.1
O=S(=O)(Nc1ccccc1N1CCOCC1)c1cc(Cl)sc1Cl
 : 1 | 1.2
O=C(CSc1n[nH]c(-c2ccncc2)n1)c1ccc(Cl)cc1
 : -0.52 | /
N#Cc1ccc(Cn2c(=O)c(C#N)c3n(c2=O)CCC3)cc1
 : / | -0.15
Cn1c(=O)c2c(nc(CN3CCN(Cc4ccccc4)CC3)n2CCCc2ccccc2)n(C)c1=O
 : -0.28 | /
COc1cc(OC)cc(C(=O)NCC(c2ccc(N(C)C)cc2)N2CCc3ccccc32)c1 (centres undefined)
 : -1.5 | -0.9
CC(=O)Nc1ccc(S(=O)(=O)NCCSc2nc3ccccc3s2)cc1
 : 3.2 | /
N#CC(C(=O)Nc1ccc(Cl)cc1)C(=O)c1cccs1 (centres undefined)
 : -2.9 | 0.25
COC(=O)c1ccc(Cn2cnc3c(cnn3-c3ccc(F)cc3)c2=O)o1
 : / | -0.7
COc1ccc(CNC(=O)C(OC(=O)c2cc3sccc3n2C(C)C)C(C)C)cc1 (centres undefined)
 : / | -0.1
O=c1cc(C(F)(F)F)[nH]c2cc(Cl)ccc12
 : 8 | /
CC1=NN(c2nc(-c3ccccc3)cs2)C(=O)/C1=C/c1cccs1
 : 0.13 | 1.2
O=C(CC12CC3CC(C1)CC(CC(=O)NC1=NCCS1)(C3)C2)NC1=NCCS1
 : -0.38 | 1.8
Cc1c(Br)c(C(F)(F)F)nn1CC(=O)Nc1cc(O)cc([N+](=O)[O-])c1
 : -2.2 | /
O=C(CCS(=O)(=O)Cc1ccccc1)Nc1ccc2c(c1)OCCO2
 : 0.39 | 0.85
Cn1c(=O)c(-c2noc(-c3cccs3)n2)cn(-c2ccccc2)c1=O
 : 0.04 | -0.8
O=S(=O)(/N=C/c1ccccc1O)c1ccc(N=Cc2ccccc2O)cc1
 : 0.67 | 0.7
COc1ccc2nc(NC(=O)CN(c3ccc(C)cc3)S(=O)(=O)c3c(C)noc3C)sc2c1
 : 0.64 | 0
Cc1ccc2c(c1)N(S(=O)(=O)c1cc3[nH]c(=O)c(=O)[nH]c3cc1C)CCO2
 : 1.6 | -0.85
Cc1cc(C)cc(NC(=O)c2cccn2-c2ncc(C(F)(F)F)cc2Cl)c1
 : -0.64 | /
O=C(Nc1ccc(CSc2ccccc2)cc1)c1ccc(Cl)cc1
 : 0.6 | /
CC(C)(C)C(=O)OCc1nc(-c2ccc3c(c2)OCCO3)cs1
 : 0.61 | -0.1
O=C(Nc1ccccc1)C1CCN(C(=O)/C=C/c2cn(Cc3ccccc3)nn2)CC1
 : / | -0.8
O=C(O)CCC(=O)c1cccnc1
 : / | 0.5
CCOc1cc2c(cc1OCC)C1C(C(=O)N(CC)CC)c3ccccc3C(=O)N1CC2 (centres undefined)
 : 0.36 | -1.5
Cc1ccccc1CNC(=O)C1CCCN(S(=O)(=O)N(C)C2CCCCC2)C1 (centres undefined)
 : 0.035 | -0.1
CC(C)c1ccc(S(=O)(=O)N2CCOCC2)cc1
 : -0.6 | 0
CCC(=O)N1c2ccc(C)cc2C(OC(=O)c2ccccc2)CC1C (centres undefined)
 : / | -0.2
O=C(O)CCC(=O)Nc1ccc(Br)cc1
 : 0.35 | -0.35
CCOc1ccc(N=C2CSC(=O)N2)cc1
 : -1.3 | -0.95
Oc1c(Cl)cc(Cl)cc1C=Nc1ccccc1C(F)(F)F
 : -1.2 | /
c1cncc(-c2nc(Nc3ccc4c(c3)OCO4)c3ccccc3n2)c1
 : / | 0.45
O=c1ccccn1CCOc1ccc(Cl)cc1
 : 0.1 | -0.3
CCN(C(=O)CSc1ncnc2c1sc1ccccc12)c1cccc(C)c1
 : -0.99 | 0.25
N#Cc1ccc(C(N2CCSCC2)N2CCSCC2)cc1
 : 0.44 | -0.35
O=C(O)CC(CC(=O)Oc1ccccc1N1CCOCC1)c1ccccc1 (centres undefined)
 : -0.46 | -0.6
CCN(C(=O)CSc1nc2[nH]ncc2c(=O)n1-c1ccc(Br)cc1)c1cccc(C)c1
 : -0.13 | /
Brc1ccc(-c2nn3c(Cc4ccccc4)nnc3s2)o1
 : -0.46 | -0.65
O=C(Nc1ccc(Br)cc1)C1CC(=O)N(c2ccccc2)C(=Nc2ccccc2)S1 (centres undefined)
 : -0.6 | 1.4
Cc1ccc(S(=O)(=O)NCC2COc3ccccc3O2)cc1 (centres undefined)
 : / | -0.45
CCOc1ccccc1NC(=O)NC1(C(=O)NCc2ccco2)CCCCC1
 : / | -0.05
COc1ccccc1N1CCN(c2ncnc3scc(-c4ccccc4)c23)CC1
 : -0.61 | /
CCOC(=O)c1sc2nc(N3CCCCC3)c3c(c2c1N)CC(C)(C)OC3
 : 0.67 | -0.6
Cc1ccc(Cn2c(/N=C/c3ccc(N(C)C)cc3)nc3ccccc32)cc1
 : -0.055 | 0.8
CC(C)(C)c1cc(C(=O)CN2CCCCC2)cc(C(C)(C)C)c1O
 : 0.095 | -0.1
Cc1nc(NC(=O)CN2CCN(Cc3ccc(F)cc3)CC2)sc1C(=O)N(C)C
 : 0.11 | -0.05
O=C1CC(Sc2ccc3ccccc3c2)C2COC1O2 (centres undefined)
 : 0.15 | 0.3
CSc1c(CC(=O)Nc2ccccc2)n(Cc2ccccc2)c2ccccc12
 : 0.22 | 0.35
CCN(CC)c1ccc(N=c2ccc3ccccc3n2C)cc1
 : -0.08 | 1.2

(cont.)
Screens in order – Ba CapD inh | AID504770
Cc1cc(C)cc(C(=O)N2CCN=C2c2ccccc2)c1
 : 0.27 | 0.75
O=C(NCC1CCCO1)c1ccc2c(c1)S(=O)(=O)c1ccccc1C2=O (centres undefined)
 : / | 0.05
Cc1cc(Oc2ncccc2C(=O)O)cc(C)c1Cl
 : 0.97 | 0.2
COc1cc(/C=c2/sc3nc4cc(C)c(C)cc4n3c2=O)cc(Br)c1OCC(=O)O
 : 0.01 | /
CCc1ccc(CSC2=Nc3cc(OC)c(OC)cc3C3=NC(=O)CN23)cc1
 : 21 | /
C=Cc1c(SC)sc(C(N)=O)c1C
 : 0.29 | -0.05
CCNC(=O)NC1CCN(c2cc(C)nc3ncnn23)CC1
 : 0.14 | -1.1
O=S(=O)(Nc1ccc(N2CCN(Cc3ccccc3)CC2)cc1)c1ccccc1
 : 0.23 | -0.4
CC(=O)c1cccc(Nc2nc(-c3ccccc3)nc3ccccc23)c1
 : 11 | /
CCNC(=O)c1ncoc1-c1ccc(C)cc1
 : 2 | -0.55
Cc1ccc(S(=O)(=O)N2CN(c3ccccc3)c3nc4ccccc4nc32)cc1
 : / | -0.05
CCOC(=O)CSc1nc2cc(S(C)(=O)=O)ccc2n1C(C)C
 : 0.04 | /
FC(F)(F)c1ccc(-c2noc(Cc3ccccc3)n2)cc1
 : -0.075 | -0.3
Cc1sc(NC(=O)c2ccc3ncsc3c2)nc1-c1ccccc1
 : -1 | 2.5
COc1cc2c(cc1OC)C(C(=O)NCCN(C)C)C(c1cccs1)N(C)C2=O (centres undefined)
 : 0.64 | -0.15
Cc1ccc(NC(=O)CSc2nc(-c3ccc4c(c3)OCO4)cn2-c2cccc(Cl)c2)cc1C
 : -0.66 | 0.45
O=C(CN1CCOCC1)N1c2ccccc2Sc2ccccc21
 : -0.2 | -0.4
O=C(/C=C/c1ccccc1)NCCSc1c[nH]c2ccccc12
 : 0.26 | -1.5
N#CC(C#N)=C(NC12CC3CC(CC(C3)C1)C2)C(F)(F)F
 : 0.12 | -0.5
Cn1nccc1NC(=O)Nc1cccc([N+](=O)[O-])c1
 : -0.01 | /
COc1cc2c(=O)n(Cc3ccccc3Cl)c(=O)n(CC(=O)N3CC(C)CC(C)C3)c2cc1OC (centres undefined)
 : -0.55 | 0.05
CCOC(=S)NC(=O)c1ccccc1
 : -0.32 | -0.65
O=C(CSc1ccc2ccccc2c1)Nc1ncccn1
 : -0.08 | 0.6
O=C(CCc1nc2ccccc2[nH]c1=O)OCc1cccc(Cl)c1
 : 4.8 | 0.2
Nc1ccc2nc(CCc3ccccc3)[nH]c2c1
 : / | -0.9
COc1cc(/C=C2\N=C(c3ccccc3)N(c3ccc(C)cc3C)C2=O)cc(OC)c1OC
 : -0.26 | /
CC(C)Nc1ccc(Nc2ccccc2)cc1
 : 1.2 | -0.25
Cc1ccnc(N2CCC(C(=O)NCCC(C)C)CC2)n1
 : / | 0.55
Cc1ccc(C)c(OCCCC(C)(C)C(=O)O)c1
 : 39&-0.24 | -0.05
O=C(NC(Nc1ncccn1)C(=O)c1ccccc1)c1ccccc1 (centres undefined)
 : / | 0.9
COc1cccc(OC)c1OC
 : 0.48 | 0.4
CCCn1c(N)c(C(=O)CN(C)CC(=O)Nc2ccc(Cl)cc2)c(=O)[nH]c1=O
 : / | -0.4
CCC(Sc1ncccc1C(=O)O)C(=O)Nc1cccc(Cl)c1 (centres undefined)
 : 0.26 | 1.6
c1c(SSc2cn3c(n2)CCC3)nc2n1CCC2
 : -0.17 | -0.55
CCCCNC(=O)c1cccnc1SCc1ccccc1Cl
 : -0.15 | /
CCOC(=O)c1nn(-c2ccccc2)c(=O)c(C#N)c1C
 : / | 0.8
CC(CO)(CO)NS(=O)(=O)c1ccccc1
 : 0.37 | -0.75
Cc1cc(N2CCC(C(O)(c3ccccc3)c3ccccc3)CC2)nc(C)n1
 : / | 0.4
COc1cccc(C(=O)O/N=C(\N)c2ccncc2)c1OC
 : 0.04 | -0.1
CCOC(=O)C1=CN(Cc2ccc(F)cc2)C=C(C(=O)OCC)C1c1cc(Br)c(OC)c(OCC)c1
 : 11 | /
Fc1ccc(COc2ccc(-c3nnco3)cc2)cc1
 : -0.055 | -0.75
CC1c2ccsc2CCN1S(C)(=O)=O (centres undefined)
 : 0.3 | -0.2
CCN(CC)C(=O)c1cccc(NC(=O)Cc2coc3cc(C)ccc23)c1
 : / | 1.6
